Compound activity from PubChem BioAssay.
H5N1 CPE: MDCK cell protection from H5N1 avian flu; cytopathic effect, luminescence, 72 h; stronger effect = higher value; no value below 0 was filed and about half of the inactive calls have no number; reference of the scale not given here; inhibition, % at 50 µM; 0.07% of 96,000 active; in the data active = inhibition above about 25%
* marks the source's active call; other numbers are inactive results; i = inactive. An excerpt; the hit share may differ from the screen's.

Structure | H5N1 CPE
Cc1ccc(S(=O)(=O)C(CCC(=O)N2CCOCC2)S(=O)(=O)c2ccc(C)cc2)cc1 | i
O=C(NNC(=O)c1cc2cc3ccccc3nc2s1)c1cccc(C(F)(F)F)c1 | 0.2
CC(C)CC(=O)NC(Oc1ccc(Cl)cc1)C(Cl)(Cl)Cl (configuration not stated) | 0.7
Cc1ccc(S(=O)(=O)NC(CC(=O)n2nc(C)cc2C)c2ccccc2)cc1 (configuration not stated) | i
COc1cccc(C(=O)SC2=NCCS2)c1 | 0.9
CCCn1nnnc1-c1ccc(Cl)cc1 | i
N#CCSCC(=O)Nc1ccc(Br)cc1 | i
Cc1ccc(OCC(=O)Nc2ccc(O)c(C(=O)O)c2)cc1C | i
Cc1cccc(OCC(O)CN2CCN(C3CCCCC3)CC2)c1 (configuration not stated) | 0.8
COc1ccc(Cl)cc1NC(=O)CN(C)C(=O)CNC(=O)C12CC3CC(CC(C3)C1)C2 | i
CCOC(=O)C1CCCN(C(=O)c2ccccc2Oc2ccccc2)C1 (configuration not stated) | 0.9
COc1ccc(-c2ccnc3nc(-n4cccc4)nn23)cc1 | 1.8
CC1CCCC(C)N1S(=O)(=O)c1ccc(NC(=O)CCn2cnc3ccccc3c2=O)cc1 (configuration not stated) | i
CC(C)(C)n1nc2c(c1NC(=O)c1ccc(S(=O)(=O)N3CCCC3)cc1)CSC2 | i
O=C(CNC(=O)c1ccc(Cl)cc1)OCC(=O)c1ccc2c(c1)OCCO2 | 0.5
COc1ccc2c(-c3ccccc3)cc(=O)[nH]c2c1 | 4.2
CN1CCN(C2=C(Cl)C(=O)N(C3CCCCC3)C2=O)CC1 | i
COC(=O)CSc1ccc(-c2nc3ccc(C)cc3[nH]2)cn1 | i
COc1ccc(C(=O)Oc2ccc3c(c2)OCO3)cc1OC | i
CC(C)N(C#N)c1nc(N2CCOCC2)nc(N2CCOCC2)n1 | i
CN(C)S(=O)(=O)c1ccc(NC(=O)c2c(F)cccc2Cl)cc1 | 0.4
COc1cccc(-c2nn(-c3ccccc3)cc2C(=O)O)c1 | i
CCc1nnc(NC(=O)c2cc(-c3ccccc3)nn2-c2ccccc2)s1 | 1.5
CCOC(=O)c1cnc2c(cnn2C)c1NCCC#N | 1.7
CN(c1ccc(C(=O)NCc2cccnc2)cc1)S(C)(=O)=O | 0.4
COCCn1c(C)cc(C(=O)CSc2nncn2-c2ccccc2)c1C | 0.9
CCN(CC)S(=O)(=O)c1ccc(NC(=O)Cn2cnc3ccccc3c2=O)cc1 | i
Cc1cc(C(=O)Nc2c(C)n(C)n(-c3ccccc3)c2=O)c(C)o1 | 1.4
C(=NCCCN1CCOCC1)c1ccc2c(c1)OCO2 | i
S=C1NC2=C(C(c3ccc(Br)cc3)N1)N1CCC2CC1 (configuration not stated) | 0.1
CCCOC(=O)COc1cc(C)cc2oc(=O)c3c(c12)CCC3 | 0.1
O=C(COc1ccc(Cl)cc1)Nc1nc(-c2ccc(S(=O)(=O)N3CCOCC3)cc2)cs1 | 5.0
CCOC(=O)c1c(-c2ccccc2)csc1NC(=O)c1ccc(N2C(=O)CCC2=O)cc1 | i
Nc1ccccc1C(=O)NCc1ccccc1 | i
O=c1c2ccccc2c(-c2ccc(Cl)cc2)nn1-c1ccccc1 | 0.4
Cc1ccc(-n2c(O)c(C=Nc3ccc4c(c3)OCO4)c3ccccc3c2=O)cc1C | 0.5
CCOC(=O)c1ccc(NC(=S)NCCc2ccccc2)cc1 | 1.6
Clc1cccc(Nc2ncnc3c2cnn3-c2ccccc2)c1 | i
C(/C=C/c1ccccc1)=N/N1CCN(c2ccccc2)CC1 | 0.5
O=C(NC1CCCCC1)c1cc([N+](=O)[O-])ccc1N1CCOCC1 | 0.1
c1ccn2c(CNc3ncnc4sccc34)nnc2c1 | 5.6
N=C1C(c2nc3ccccc3s2)=C(O)CN1Cc1ccco1 | i
CCOC(=O)N1CCC(NC(=O)C2CCN(c3nc(-c4ccc(OC)cc4)no3)CC2)CC1 | i
CCCCCCCCC(=O)N/N=C/c1ccccn1 | i
COc1cccc(NC(=O)c2nnn(CCc3ccccc3)c2N)c1 | i
N#Cc1cnc(SCCc2ccccc2)nc1N | 0.5
CC(=Nc1ccc(C)c(C)c1)C1=C(O)CSC1=O | i
CCCCn1c(SCC(=O)NCc2ccco2)nc2ccccc2c1=O | i
COC(=O)[C@H](C(C)C)n1c(C)c(C(C)=O)c(C(C)=O)c1C | 1.1
CS(=O)(=O)N(CC(=O)N1CCN(c2ccccc2)CC1)C1CCCCC1 | i
CC(/C=N/n1c(COc2ccccc2)n[nH]c1=S)=C\c1ccccc1 | i
C=C(C)Cn1c(NCCOC)nc2c1c(=O)[nH]c(=O)n2C | i
COc1ccc(C2(C(=O)Nc3nncs3)CCCC2)cc1 | 0.3
CCOc1ccc(NC(=S)/C(=C(\[O-])c2ccc(C)c([N+](=O)[O-])c2)[n+]2ccccc2)cc1 | 0.1
CSc1ccccc1NC(=O)Nc1ccc(Cl)cc1 | 4.6
O=C(/C=C/c1ccccc1)CC(O)(c1ccccc1)C(F)(F)F (configuration not stated) | 5.5
Cc1cc(C(=O)CSc2n[nH]c(N)n2)c(C)n1-c1ccccc1 | 0.3
Cc1cc(C)c(NC(=O)CS(=O)CC(=O)Nc2cccnc2)c(C)c1 (configuration not stated) | i
O=c1[nH]c(CN2CCCCC2)nc2ccccc12 | 1.0
OCCN1CCOCCOCCN(CCO)CCN(CCO)CC1 | i

(list continues)
Structure | H5N1 CPE
COc1ccccc1N1CCN(Cc2c(F)cccc2F)CC1 | i
O=C(CCCN1C(=O)c2ccccc2C1=O)N1CCN(c2ccccn2)CC1 | i
Cc1ccc(CSc2nc3c(c(=O)[nH]2)CCC3)cc1 | i
CCCCN(CC)CCNC(=O)c1cc2c(=O)n(C)c3ccccc3c2n1C | 2.7
CCCOc1c(Br)cc(C(=O)NCC)cc1OC | i
COc1ccc(CNC(=O)CN(CC2CCCO2)C(=O)CNS(=O)(=O)c2ccc(C)cc2)cc1 (configuration not stated) | 0.2
O=C(O)CSc1nnc(C2CC2)n1-c1ccccc1 | i
COc1ccc(S(=O)(=O)N2CCCC(C(=O)N3CCOCC3)C2)cc1C (configuration not stated) | 0.9
CCCCn1c(C(C)NC(=O)c2cccs2)nc2ccccc21 (configuration not stated) | i
Cn1c(=O)cc(SCC(=O)N2CCOCC2)c2ccc(Cl)cc21 | 0.7
CCCC1(CCC)NC(=O)N(CC(=O)Nc2ccccc2OC)C1=O | 2.0
O=C(NC1CCCC1)c1cc2c(ccc3ccccc32)o1 | i
c1ccc2c(c1)nc(N1CCOCC1)c1nnnn12 | 1.1
CCCS(=O)(=O)N1CCN(Cc2ccccc2OCC)CC1 | i
COCCNC(=S)NC1CC2CCCC(C1)N2Cc1ccco1 (configuration not stated) | 0.2
CCCc1[nH]nc2c1C(c1ccc(O)cc1OCC)C(C#N)=C(N)O2 (configuration not stated) | 0.8
O=[N+]([O-])c1ccc(Cl)c(/C=N/N2CCN(c3ccccc3)CC2)c1 | i
CCC(C)(C)NC(=O)CN(C(=O)CCC(=O)Nc1cc(C)ccn1)c1ccc2c(c1)OCO2 | i
Cc1cc(NS(=O)(=O)c2ccc(NC(=O)CN3C(=O)c4ccccc4C3=O)cc2)nc(C)n1 | i
Cc1cccc(CCNC(=O)C2CCN(S(=O)(=O)c3c(C)noc3C)CC2)c1 | i
Cc1cccc(/C(N)=N/OC(=O)N2c3ccccc3Sc3ccccc32)c1 | 4.7
Cc1ccc(C(=O)CSc2nc3cc(S(=O)(=O)N4CCOCC4)ccc3o2)cc1 | 0.4
CC(=O)Nc1ccc(NC2=Nc3ccccc3N3C2=Nc2c(c(C)nn2-c2ccccc2)C3c2ccccc2)cc1 (configuration not stated) | 0.6
CCCCn1c(=O)cc(O)c2ccccc21 | i
CC(C)(C)c1ccccc1OCC(=O)Nc1ncn[nH]1 | 1.3
CCN(CC)C(=O)N1CCN(S(=O)(=O)c2ccc(C)cc2)CC1 | 3.1
CCOCCCNC(=O)CN1CCN(Cc2ccccc2C)C1=O | 0.8
CCCn1c(=O)c(C(=O)NCc2ccccn2)c(O)c2ccccc21 | 3.0
CSC1=NC(NCCCO)c2c(sc3c2CC(C)(C)OC3)N1 (configuration not stated) | 1.5
Cc1nnc(NC(=O)c2ccncc2)s1 | 0.8
Cc1ccc(-c2ccc(/C=N/N=C3/NC(=O)C(CC(=O)O)S3)o2)c([N+](=O)[O-])c1 (configuration not stated) | 0.5
CC(=O)N(Cc1ccc2c(c1)OCO2)C1CC(=O)N(CCc2ccccc2)C1=O (configuration not stated) | 0.9
COc1cc(/C=N/Nc2nn3cnnc3c3ccccc23)cc(OC)c1OC | 0.8
CCc1ccc(-c2ccc(C(=O)O)cc2)nc1 | 0.6
COCC(C)NC(=O)c1cc(-c2ccc(OC)c(OC)c2)on1 (configuration not stated) | i
C=CCn1c(SCC(=O)NCc2ccco2)nnc1-c1ccc2ccccc2n1 | 0.8
COc1ccc(Cn2nnnc2C(c2ccncc2)N2CCOCC2)cc1 (configuration not stated) | 0.3
COc1ccc(-c2cc(C(F)(F)F)n3nc(C(=O)NCc4ccco4)c(Cl)c3n2)cc1 | 0.2
COc1ccc(-c2noc(CSc3nnc(Cc4ccccc4)n3-c3cccc(C)c3)n2)cc1OC | 1.9
Cc1ccccc1Nc1nc(N)nc(CN2C(=O)NC3(CCCCC3C)C2=O)n1 (configuration not stated) | i
CCOc1ccccc1N(CC(=O)NCC1CCCO1)C(=O)CCC(=O)Nc1ccccn1 (configuration not stated) | 0.4
CCN(CC)c1ccc(NC(=O)c2ccc(Br)o2)c(C)c1 | i
CC1=C(C(N)=O)C(c2ccncc2)n2nc(-c3ccccc3Cl)nc2N1 (configuration not stated) | 0.3
O=c1nc2ccccc2c(NS(=O)(=O)c2ccccc2)n1-c1ccccc1 | 0.3
O=C1[C@@H]2C(Cc3ccc(O)cc3)NC3(C(=O)Nc4ccc(F)cc43)[C@@H]2C(=O)N1c1ccc(F)cc1 (some centres not stated) | 0.1
Cc1ccc(NC(=O)c2cc(NC(=O)CCC(=O)O)ccc2N2CCCCC2)cc1 | 0.6
CCOC(=O)c1cc(C#N)c(SCc2cccc3ccccc23)nc1C | i
O=C(c1cccc(F)c1)N1CCN(c2cccc(C(F)(F)F)c2)CC1 | 0.5

Structures above containing two or more sulfur atoms (6):
Structure | H5N1 CPE
Cc1ccc(S(=O)(=O)C(CCC(=O)N2CCOCC2)S(=O)(=O)c2ccc(C)cc2)cc1 | i
COc1cccc(C(=O)SC2=NCCS2)c1 | 0.9
CC(C)(C)n1nc2c(c1NC(=O)c1ccc(S(=O)(=O)N3CCCC3)cc1)CSC2 | i
O=C(COc1ccc(Cl)cc1)Nc1nc(-c2ccc(S(=O)(=O)N3CCOCC3)cc2)cs1 | 5.0
Cc1ccc(C(=O)CSc2nc3cc(S(=O)(=O)N4CCOCC4)ccc3o2)cc1 | 0.4
CSC1=NC(NCCCO)c2c(sc3c2CC(C)(C)OC3)N1 (configuration not stated) | 1.5

Later entries.
Structure | H5N1 CPE
COC(=O)[C@H](CCSC)NC(=O)Nc1cc(C)ccc1C | i
COc1ccc(NC(=O)C2CCN(S(=O)(=O)c3cccc4cccnc34)CC2)cc1 | i
COc1c(Cl)cc(C(=O)Nc2ccccc2-c2ccccc2)cc1Cl | i
CCCCC(=O)Nc1nnc(SCC(=O)N2CCN(c3ccccc3OC)CC2)s1 | i
Cc1nc2sc3c(c2c2nnc(SCC(=O)NCc4ccco4)n12)CCCC3 | 1.2
O=C1c2ccsc2SCCN1Cc1cccc(Cl)c1 | i
Cc1cccc2cc(C(c3nnnn3CC3CCCO3)N3CCCC4(CCCCC4)C3)c(=O)[nH]c12 (configuration not stated) | i
Cc1ccc(-n2nc3c(=S)[nH]nc(C)c3c2C)cc1 | 0.4
COc1cccc(CSc2nnc(-c3ccc(F)cc3)o2)c1 | 1.6
Cc1ccc(-n2ncc3c(=O)n(CC(=O)Nc4cccc(Cl)c4)cnc32)cc1C | i
Cc1nn(-c2ccccc2)c(C)c1C(=O)OCC(=O)c1c(N)n(CC(C)C)c(=O)n(C)c1=O | i
O=C(Nc1cc(Cl)ccc1O)c1cc2n(n1)C(C(F)(F)F)CC(c1ccc3c(c1)OCO3)N2 (configuration not stated) | i
COc1cc(/C=N/NC(=O)CNC(=O)c2ccccc2)ccc1OC(=O)c1cccs1 | 5.3
Cc1ccc(C(=O)c2cc3c(cc2N)OCCO3)cc1 | i
NC(=O)C1CCN(C(=O)c2cc3ccccn3n2)CC1 | 2.1
O=C(O)CN1C(=O)c2ccc(Oc3cccc4c3C(=O)N(CC(=O)O)C4=O)cc2C1=O | 0.6
COc1cccc(CN2CCN(c3ncccn3)CC2)c1 | i
O=C1CSC(c2cn(-c3ccccc3)nc2-c2cc3ccccc3oc2=O)N1Cc1cccnc1 (configuration not stated) | 1.1
COc1cc2c(cc1OC)CN(C(=O)CSc1nc3[nH]ncc3c(=O)n1-c1ccccc1)CC2 | 2.5
Cc1ccc(N2C(=O)CSC2c2c(F)cccc2Cl)cc1 (configuration not stated) | 1.6
CCCC(=O)Nc1ccc(Cl)c(NC(=O)c2ccco2)c1 | i
Cc1occc1-c1nnc(SCC(=O)NCc2ccc3c(c2)OCO3)n1CC(C)C | 1.9
CCOC(=O)C1=C(N)OC2=C(C(=O)CCC2)C12C(=O)Nc1ccccc12 (configuration not stated) | 0.1
COc1ccc(Oc2coc3cc(OC(=O)c4cncc(Br)c4)ccc3c2=O)cc1 | 0.7
Cc1ccc(C)c(NC(=O)C2CCCN2C(=O)OC(C)(C)C)c1 (configuration not stated) | i
CCN1CCCC1CNC(=O)c1cc(NC(C)=O)c(N(C)C)cc1OC (configuration not stated) | i

3 records drawn at random from those above:
Structure | H5N1 CPE
Cc1ccc(C)c(NC(=O)C2CCCN2C(=O)OC(C)(C)C)c1 (configuration not stated) | i
NC(=O)C1CCN(C(=O)c2cc3ccccn3n2)CC1 | 2.1
CCOC(=O)C1=C(N)OC2=C(C(=O)CCC2)C12C(=O)Nc1ccccc12 (configuration not stated) | 0.1
